Tgondii IFNg: blocks Toxoplasma gondii growth in the presence of IFN-gamma; Toxoplasma gondii growth in IFN-gamma-treated host cells; hits give low values; reference of the scale not given here; activity change, negative = inhibition, %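 (about 20 µM by stock and volumes)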; 69,000 compounds, 3.8% hits; AID 1259416;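 active means below -70%; inconclusive means fit judged invalid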;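 further: host cells are HeLa cells infected with Toxoplasma gondii; parasite growth read as luciferase light; one replicate is shown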
Numbers without * were called inactive; i = inactive; ? = inconclusive.

SMILES	Tgondii IFNg
COc1ccc(-c2coc3cc(O)ccc3c2=O)c(OC)c1	21
O=C1c2cccc3cccc(c23)C(=O)N1CCO	-27
O=C1CC2(CCN(C(=O)c3cccc(-c4ccccc4F)c3)CC2)CN1	3
O=C(NCc1ccc(CO)cc1)[C@@H]1CN(Cc2ccccc2)C[C@H]1C(=O)c1ccc(F)cc1	-42
Cc1nc(CN2C(=O)C[C@@H]3[C@@H]2CCN3C(=O)c2ccoc2C)cs1	-3
COc1ccc(CC(=O)Nc2ccc(-c3nc(Cn4cccn4)c(C)o3)cc2)cc1	-59
NCC1CCN(C(=O)c2cccc(-c3cc4ccccc4oc3=O)c2)C1 (stereo not given)	74
CCNC(=S)N1CCN(CC)CC1	1
CC(=O)N1c2ccccc2C(C)CC1(C)C (stereo not given)	5
CCc1cnc(C)nc1NCCNc1nc(C)cc(=O)[nH]1	20
CC(C)N1CCN(C(=O)CCc2csc(N)n2)CC1C (stereo not given)	3
CCn1nc(C(=O)O)c2c1CCC(NCc1c(OC)cccc1OC)C2 (stereo not given)	-4
C=CCc1cc(OC)c(O)c(C(=O)NCCO)c1	20
O=C(NCc1cccnc1-n1ccnc1)c1ccc(-c2ccccc2)[nH]1	-4
Cc1ccccc1S(=O)(=O)Nc1ccc2c(c1)C(=O)N(C)[C@H]1CC[C@H](CC(=O)O)O[C@@H]1CO2	24
COC1CCC(C(=O)c2ccc3nc4c(cc3c2)CCCO4)CC1 (stereo not given)	196
Cc1ccc(N2CCC3(CC2)CN(Cc2cccnc2)C(=O)CO3)nn1	1
CNC(=O)C[C@@H]1CC[C@H]2[C@H](COc3ccc(NS(=O)(=O)c4ccc(F)cc4)cc3C(=O)N2C)O1	-6
CCOCC1CN(Cc2ccc3c(c2)OCO3)Cc2cncn2C1 (stereo not given)	0
CC(C)(C)c1nnc(NC(=O)C2CC(=O)N(CCc3c[nH]c4ccc(Cl)cc34)C2)s1 (stereo not given)	-34
Cc1cc(N2N=C(c3ccccc3)CC2c2ccccc2)nc(-c2ccccc2O)n1 (stereo not given)	-54
COc1ccc2c3c([nH]c2c1)[C@@H](CO)N(C(=O)CC1CC1)CC31CCN(C(=O)c2ccccc2)CC1	-2
CCSc1ncc(CN(C)Cc2n[nH]c3c2CCCC3)cn1	-54
CN(C)CCN1[C@@H]2CCN(C(=O)C(C)(C)C)CC[C@@H]2Oc2ccccc2S1(=O)=O	2
O=C(NCc1cccnc1)C1CCN(Cc2cc3ccccc3n2Cc2ccccc2)CC1	-1

A portion from further up:
SMILES	Tgondii IFNg
CCn1nc(C(=O)O)c2c1CCC(NCc1c(OC)cccc1OC)C2 (stereo not given)	-4
C=CCc1cc(OC)c(O)c(C(=O)NCCO)c1	20
O=C(NCc1cccnc1-n1ccnc1)c1ccc(-c2ccccc2)[nH]1	-4
Cc1ccccc1S(=O)(=O)Nc1ccc2c(c1)C(=O)N(C)[C@H]1CC[C@H](CC(=O)O)O[C@@H]1CO2	24
COC1CCC(C(=O)c2ccc3nc4c(cc3c2)CCCO4)CC1 (stereo not given)	196
Cc1ccc(N2CCC3(CC2)CN(Cc2cccnc2)C(=O)CO3)nn1	1
CNC(=O)C[C@@H]1CC[C@H]2[C@H](COc3ccc(NS(=O)(=O)c4ccc(F)cc4)cc3C(=O)N2C)O1	-6
CCOCC1CN(Cc2ccc3c(c2)OCO3)Cc2cncn2C1 (stereo not given)	0
CC(C)(C)c1nnc(NC(=O)C2CC(=O)N(CCc3c[nH]c4ccc(Cl)cc34)C2)s1 (stereo not given)	-34
Cc1cc(N2N=C(c3ccccc3)CC2c2ccccc2)nc(-c2ccccc2O)n1 (stereo not given)	-54
COc1ccc2c3c([nH]c2c1)[C@@H](CO)N(C(=O)CC1CC1)CC31CCN(C(=O)c2ccccc2)CC1	-2
CCSc1ncc(CN(C)Cc2n[nH]c3c2CCCC3)cn1	-54
CN(C)CCN1[C@@H]2CCN(C(=O)C(C)(C)C)CC[C@@H]2Oc2ccccc2S1(=O)=O	2
O=C(NCc1cccnc1)C1CCN(Cc2cc3ccccc3n2Cc2ccccc2)CC1	-1

(next part)
SMILES	Tgondii IFNg
N#C[C@@H]1[C@H](c2ccccc2-c2ccccc2F)[C@H](CO)N1C(=O)Cc1ccccc1	-23
O=C(C[C@@H]1CC[C@H]2NC[C@H](O)COC[C@@H]2O1)N1CCc2ccccc2C1	29
CCN(CC)[C@H]1CN(Cc2nccn2C)C2CCCOC21 (stereo not given in full)	-40
O=S(=O)(c1ccc(NC(=S)NCc2cccnc2)cc1)N1CCCCC1	-67
CCNC1=C(Cl)C(=O)c2ccccc2C1=O	-4
CCC(=O)N1[C@@H](CO)[C@@H](c2ccccc2)C12CN(C(=O)Nc1ccccc1F)C2	-58
COc1cccc(Cn2cnc3c4cc(F)ccc4n(Cc4ccc(N5CCCC5=O)cc4)c3c2=O)c1	-51
COc1ccccc1CCNC(=O)CC(=O)Nc1ccc(F)c(Cl)c1	39
O=C(CC1COCCN1)NCc1csc2ccc(Cl)cc12 (stereo not given)	-10
COCC1CN(c2ccc(C)nn2)Cc2cnn(C)c21 (stereo not given)	0
CCn1c(C2CCNCC2)nn(Cc2ccc(C(F)(F)F)nc2)c1=O	-2
CCc1ccc(S(=O)(=O)N2CCC3(CC2)NCCN=C3NCc2cccc(F)c2)cc1	11
CC(C)CC(c1ncnn1C)n1cc(-c2ccc3c(c2)OCCO3)nn1 (stereo not given)	41
CCc1ccc(CN(Cc2ccncc2)Cc2ccc(F)cc2)nc1	0
CCOc1ccc(C(=O)N2CCC(C)(C(=O)NCc3cc(OC)cc(OC)c3)CC2)cc1	12
COc1ccccc1CN1[C@@H]2CN(C(=O)C3CCOCC3)c3ccccc3[C@@H]2[C@@H]1CO	-20
Cc1nc(N2CCN(C3CCOCC3)CC2)cc(-n2cccn2)n1	3
CCn1cc(-c2c(-c3ccccc3)ncn2C(C)c2cnn(C)c2)c(C)n1 (stereo not given)	-12
Cc1nc2c(n1C)CN(C(=O)Cc1ccc(F)cc1)CC2	67
CCOc1ccc(N(Cc2nc(-c3cccc(C)c3)oc2C)S(=O)(=O)c2cccs2)cc1	-43
Cc1nc2c(c(=O)[nH]1)CCN(C(=O)c1cc(-n3cccn3)ccc1Cl)C2	51
CN1CC(c2ccccc2)C2(CCN(S(=O)(=O)N(C)C)C2)C1=O (stereo not given)	-11
CCOC(=O)c1c(C)nsc1NC(=O)Oc1ccccc1	190
O=S(=O)(c1cccs1)N1CCCCN2[C@H](C1)[C@H](c1ccc(/C=C/c3ccccc3)cc1)[C@@H]2CO	-4
CC(=O)c1cc2cc(Cl)cc(Cl)c2o1	23

Sorted by molecular weight (smallest number first): some entries from above.
SMILES	Tgondii IFNg
CCN(CC)[C@H]1CN(Cc2nccn2C)C2CCCOC21 (stereo not given in full)	-40
COc1ccccc1CCNC(=O)CC(=O)Nc1ccc(F)c(Cl)c1	39
O=S(=O)(c1ccc(NC(=S)NCc2cccnc2)cc1)N1CCCCC1	-67

Other results:
SMILES	Tgondii IFNg
N#Cc1cccc(N2CCCC3(CN(C(=O)NC4CC4)CCO3)C2)c1 (stereo not given)	-1
Cc1ccc(S(=O)(=O)Nc2ccc3c(c2)C(=O)N([C@H](C)CO)C[C@@H](C)[C@@H](CN(C)S(=O)(=O)c2cccs2)OCCCC[C@H](C)O3)cc1	-117*
Cc1ccc(NC(=O)c2c(O)c3ccccc3n(-c3ccccc3)c2=O)cc1Cl	-39
COCCN1C(=O)CCc2cc(NC(=O)c3ccccc3Br)ccc21	-23
COc1ccc(-c2nc(C)c(CCNS(=O)(=O)c3cc(Cl)ccc3Cl)s2)cc1	410
CCCC(=O)N1CCc2c([nH]c3ccccc23)C12C(=O)Nc1ccccc12 (stereo not given)	272
O=C(c1nccnc1C(=O)N1CC(c2cccnc2)C1)N1CCCCC1	5
CCc1ccc(CNC(=O)Cn2ncc3c(N4CCN(c5ccccn5)CC4)ncnc32)cc1	31
CO[C@H]1CN(C)C(=O)c2cc(NC(=O)Nc3ccccc3F)ccc2OC[C@@H](C)N(CCC(F)(F)F)C[C@@H]1C	65
CC(C)N(Cc1cnn(C)c1)C(=O)CCSc1ccc2c(c1)OCCO2	-3
COc1ccc(C2(NC(=O)c3cccc(N4CCCCS4(=O)=O)c3)CCCC2)cc1	-9
CO[C@H]1CN(C)C(=O)c2cccc(C#N)c2OCC[C@H]2CC[C@H](OC)[C@@H](CN(C)C(=O)[C@H]1C)O2	-1
O=C(Cn1ncc2ccccc21)N1CC(=O)N(C2CCCCC2)CC(OCc2cccnc2)C1 (stereo not given)	-5
N#C/C(=C/c1ccc(O)c(O)c1)C(=O)OCCc1cccs1	7
N#CCNC(=O)C1CC(=O)N(CCc2c[nH]c3ccc(F)cc23)C1 (stereo not given)	298
Cc1ccccc1S(=O)(=O)NCC1CCN(Cc2cnn(C)c2)C1 (stereo not given)	3
CCN(CC)c1ccc2c(C)c(CC(C)=O)c(=O)oc2c1	-98*
Cc1ccc(C(=O)Nc2ccc3c(c2)CCC(=O)N3)c(C)c1	20
CCOC(=O)CCNC(=O)N1CC[C@@H]2CC[C@H](C1)N2C	-4
CCc1nc(C)c(C(=O)NCc2cc(-c3cccnc3)no2)s1	?
Cc1nc(CN2CCC3(CCN(C(=O)c4cccn4C)C3)C2=O)cs1 (stereo not given)	88
CC(C)NC(=O)Nc1cccc2c1O[C@H](CN(C)C(=O)Nc1ccccc1)[C@@H](C)CN([C@H](C)CO)C2=O	2
O=C(C[C@H]1NCCC[C@@H]1O)Cn1cnc2cc(Br)c(Cl)cc2c1=O	-80*
CCOc1ccc(-c2[nH]ncc2CN2CCC(n3nc(C)cc3C)CC2)cc1	-15
Cc1nc(OCC(=O)Nc2ccc(Cl)c(C(F)(F)F)c2)c2ccccc2n1	-69

(list continues)
SMILES	Tgondii IFNg
Cc1ccccc1C1(O)CCN(Cc2cnc(N3CCCC3)nc2)C1 (stereo not given)	1
CCOc1cccc(C2c3[nH]c4ccccc4c3CCN2C(=O)c2ccc(C)cc2)c1 (stereo not given)	-122*
CN(Cc1nccn1Cc1ccccc1)C(=O)c1ccc(=O)n(C)c1	0
COc1cccc(-c2cn[nH]c2C2CCN(Cc3ccncc3)CC2)c1	1
CC(=O)N1CCO[C@H]2CN(C(=O)COc3ccccc3)CC[C@@H]2C1	-1
Cc1nn(C)c(N2CCOCC2)c1CN(C)Cc1[nH]c2ccccc2c1C	6
Cc1noc(C)c1S(=O)(=O)N(C)C[C@H]1OCCCC[C@@H](C)Oc2ccc(NS(=O)(=O)c3cn(C)cn3)cc2C(=O)N([C@@H](C)CO)C[C@H]1C	73
CCNC(=O)CN1CCN(Cc2cnc3c(-c4ccccc4)cnn3c2)CC1	4
C=C(C)CN1CCN(Cc2cnn(C3CCCCC3)c2)CC1	-37
O=C(CN1CCOCC1)N1CC[C@@H]2[C@H]1c1cc(Br)ccc1N[C@@H]2CO	-9
O=C(C[C@@H]1C=C[C@@H](NC(=O)CCN2CCCCC2)[C@@H](CO)O1)Nc1nccs1	37
CC(C)c1nc(CN(C)C(=O)COc2cccnc2)cs1	-50
Cc1ccc2c(c1C)-n1cccc1C1(CCN(C(=O)Cc3cccs3)CC1)N2	37
Cc1noc(C)c1NC(=O)Nc1ccc2c(c1)C(=O)N(C)[C@H]1CC[C@H](CC(=O)N[C@@H]3CCN(Cc4ccccc4)C3)O[C@H]1CO2	0
Cc1oncc1C(=O)N1CCC2(CC1)Cc1ccccc1CNC2=O	1
CCOC(=O)CC1CCCCN1Cc1cc(-c2ccccn2)no1 (stereo not given)	2
Cc1ccc(-c2nc(C)c(CCNC(=O)C(=O)Nc3ccc(C)c(C)c3)s2)cc1	-16
O=C(C1CC2(CCNCC2)CN1)N1CCC(c2nc3ccccc3[nH]2)CC1 (stereo not given)	-11
CN(c1cc(C(F)(F)F)ccn1)N1C(=O)c2ccccc2C1=O	1
O=C(NCCCN1CCC(N2CCCCC2)CC1)c1nnc2ccc(-c3ccccc3)nn12	-2
COc1ccc(-c2nc(C)c(CCNS(=O)(=O)c3cc(F)ccc3F)s2)cc1	i
O=C(c1cccnc1)N1CCc2c([nH]c3ccccc23)C1c1ccc(F)cc1 (stereo not given)	76
Cc1cnc(Cn2cnc(-c3ccccc3)c2-c2cc(C)[nH]n2)cn1	14
CC=Cc1ccc2n(c1=O)C[C@@H]1[C@@H](CO)[C@H](C(=O)NCc3ccccc3Cl)N(S(C)(=O)=O)[C@H]21 (mixture of isomers)	-44
Cc1ccc(S(=O)(=O)Nc2ccc3c(c2)C(=O)N([C@H](C)CO)C[C@H](C)[C@H](CN(C)S(=O)(=O)c2cccs2)OCCCC[C@H](C)O3)cc1	-121*

The list goes on.
SMILES	Tgondii IFNg
Cc1noc(C)c1NC(=O)Nc1ccc2c(c1)C(=O)N(C)[C@H]1CC[C@@H](CC(=O)N[C@H]3CCN(Cc4ccccc4)C3)O[C@H]1CO2	6
CCOc1ccccc1C(=O)NCCc1csc(-c2ccc(Cl)cc2)n1	-80*
Cc1ccnc(N2CCN(C(=O)c3ccccc3C3CCNC3)CC2)c1 (stereo not given)	-12
CC(=O)N1CCc2[nH]c3ccc(C(=O)NCCc4ccccn4)cc3c2C1	32
O=S(=O)(c1cccs1)N1CCC2(CC1)CN(CCO)c1ccccc12	-3
O=C(Nc1ccccc1Sc1c(Cl)cncc1Cl)c1cccs1	-68
O=C(O)c1ccc(C2CCN(C(=O)Cc3cccnc3)C2)cc1 (stereo not given)	-3
NC1(Cc2ccc(Cl)cc2)CCN(c2ncnc3[nH]ccc23)CC1	4
O=C1NC(Cc2ccccc2)C(=O)N1c1ccccc1 (stereo not given)	-14
CCc1cccc(NC(=O)Cn2c(=O)cc(C(=O)N3CCCCC3)c3ccccc32)c1	-9
CCc1nnc(-c2ccc3ccn(CC(=O)Nc4cc(C)ccn4)c3c2)o1	-20
O=C(NCCO)c1cc(-c2ccn(C3CCCC3)n2)n2ccccc12	-7
CC1c2ncc(Cn3cccn3)n2CCN1Cc1cccs1 (stereo not given)	27
COc1ccc(-c2nc(NCCN3CCC(C)CC3)c3ccccc3n2)cc1	-57
CN(C)CC(=O)N1CCC2(CC1)C(=O)N(CC1CC1)CCN2C	4
CCOc1ccc(NC(=S)N(C)C)cc1	9
Cc1c(C(=O)O)sc2ncnc(N(C)CCN3CCCCC3=O)c12	3
CO[C@@H]1CCN(S(=O)(=O)c2cn(C)cn2)[C@H]1Cc1cnn(C)c1	-3

Compound activity deposited in PubChem by Broad Institute.

An excerpt; the hit share may differ from the screen's.
